Assay outcomes as filed in PubChem.
MbtI inh – inhibitors of Mycobacterium tuberculosis siderophore enzyme MbtI. P9WFX0. purified MbtI enzyme, fluorescence intensity read-out. inhibition, %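 (about 17 µg/mL by stock and volumes)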. 100,000 tested, 0.89% active. AID 493033;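 active = above 50% in both replicates, above 80% if mildly self-fluorescent; inactive = the rest, strongly fluorescent compounds included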;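 also: 0% = mean of negative and 100% = mean of positive controls; one replicate is shown; some compounds called inactive have numbers as strong as hits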
Target sequence (P9WFX0 whole entry, looked up): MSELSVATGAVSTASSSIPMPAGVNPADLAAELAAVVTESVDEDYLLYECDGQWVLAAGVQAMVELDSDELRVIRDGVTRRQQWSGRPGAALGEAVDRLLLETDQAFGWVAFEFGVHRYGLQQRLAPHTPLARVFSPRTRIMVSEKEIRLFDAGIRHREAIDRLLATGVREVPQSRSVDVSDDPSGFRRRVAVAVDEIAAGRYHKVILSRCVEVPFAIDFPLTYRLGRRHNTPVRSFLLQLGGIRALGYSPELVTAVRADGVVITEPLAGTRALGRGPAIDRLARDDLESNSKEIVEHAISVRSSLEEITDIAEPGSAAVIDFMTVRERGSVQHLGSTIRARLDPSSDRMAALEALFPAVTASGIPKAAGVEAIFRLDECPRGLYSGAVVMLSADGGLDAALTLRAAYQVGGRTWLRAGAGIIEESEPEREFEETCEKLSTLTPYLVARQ
PV pol inh – poliovirus RNA polymerase inhibition | AID 588519 | P03300 | 150,000 tested, 0.66% active | % elongation, % (compound at 16.7 µg/mL) | poliovirus polymerase elongation, fluorescence polarization; active compounds read low; in the data active = % elongation below about 90%; also: some results filed as inactive read as strong as hits
Mtb MenB inh – inhibitors of Mycobacterium tuberculosis MenB enzyme. P9WNP5. MenB enzyme assay, absorbance read-out; some hits fall short of the stated cut. inhibition, %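 (about 12 µg/mL by stock and volumes)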. 100,000 tested, 0.43% active. AID 540299;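 active = mean of two replicates above 30%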;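 also: 0% = no compound and 100% = wells with inactive enzyme; the first replicate is given; strong numbers were not always called active; inactives centre near -10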
Target sequence (P9WNP5 whole entry, looked up): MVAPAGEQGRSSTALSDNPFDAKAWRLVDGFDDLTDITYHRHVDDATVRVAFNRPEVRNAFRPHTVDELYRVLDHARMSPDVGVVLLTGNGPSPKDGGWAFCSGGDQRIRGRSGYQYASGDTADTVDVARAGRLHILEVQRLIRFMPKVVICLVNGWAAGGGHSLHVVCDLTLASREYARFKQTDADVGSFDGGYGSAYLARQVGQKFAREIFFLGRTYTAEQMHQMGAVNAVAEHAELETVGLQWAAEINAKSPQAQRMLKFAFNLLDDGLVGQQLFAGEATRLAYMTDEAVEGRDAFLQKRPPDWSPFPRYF
PV pol inh intensity – second read-out of PV pol inh, no call of its own (marks repeat the call); % elongation; measured here: total intensity read-out; formula for this scale not given here;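 total fluorescence in place of polarization; lower means less elongation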
An asterisk follows results filed as active; i = inactive; x = no result given.

mol	MbtI inh	PV pol inh	PV pol inh intensity	Mtb MenB inh
CSC(=NCc1sccc1COc1ccc(Cl)cc1)NC#N	-3	108	113	-17
CCC(C)NC(=O)C1c2ccccc2C(=O)N(C)C1c1c[nH]c2ccccc12 (stereo not given)	-7	103	106	-19
CC1CCCN(CC(=O)Nc2ccc(Cl)c(C(F)(F)F)c2)C1 (stereo not given)	7	103	99	-44
CCCOC1(NC(=O)c2ccccc2)C(C)=CC(=O)C=C1C	18	104	105	-39
O=C1CCCN1c1ccc(OCc2ccc(F)cc2)cc1	-9	105	109	-2
Cc1cc(C(=O)CSc2nnc(CN3CCCC3)o2)c(C)n1CCC(C)C	12	114	116	6
NNC(=O)c1nsnc1-c1ccccc1O	-6	105	102	-13
CC(O)CN1CC2CC(C1)c1cccc(=O)n1C2 (stereo not given)	x	105	113	-3
CC1CCN(C(=O)c2cc(-c3ccncc3)nc3ccccc23)CC1	4	98	104	-4
O=C(Cc1cc(=O)[nH]c(=O)[nH]1)NCCN1CCOCC1	-6	106	96	-52
Cc1cccc(-c2nnc3sc(NC(=O)CC(C)C)nn23)c1	0	101	96	-3
O=C(NCC(c1ccc(F)cc1)N1CCOCC1)c1ccc(C(=O)c2ccccc2)cc1 (stereo not given)	-11	103	105	x
COC(CNC(=O)c1ccc2c(c1)N(Cc1ccc(Cl)cc1)CCS2)OC	-43	103	107	-15
CCC(=O)NNc1nc2c(OC)ccc(OC)c2s1	12	100	103	-45
COC(=O)C(C)Oc1ccc(Oc2nc(Cl)ccc2Cl)cc1 (stereo not given)	1	100	107	-5
COC(=O)c1c(NC(=S)Nc2ccn(C)n2)sc2c1CCCC2	8	99	99	-29
O=C(c1cc2nc(-c3ccccc3)cc(-c3ccccc3)n2n1)N1CCCC1	-32	101	109	2
O=C(Nc1ccc(C(F)(F)F)cc1)C1CCC1	-1	100	106	8
CCc1ccc(NC(=O)CN(C)S(=O)(=O)c2cccc3nsnc23)cc1	-5	101	104	-3
CC1=NN(c2nc3ccccc3[nH]2)C(=O)C1CCC(C)C (stereo not given)	34	111	107	-59
CCN(C(=O)Nc1cn(C)c(=O)c2ccccc12)c1ccccc1	-28	100	101	-20
Cc1ccccc1OC1C(=O)N(C2CCCC2)C1c1ccc2c(c1)OCO2 (stereo not given)	-10	101	101	3
CC1CCCC(C)N1NC(=O)c1ccc2c(c1)SC1=NS(=O)(=O)CCN12 (stereo not given)	1	102	102	-2
CCN1CCCC1CNC(=O)Nc1ccc(Cl)c(Cl)c1 (stereo not given)	1	102	104	6
COc1cccc(NC(=O)CSC2=Nc3ccccc3C3=NC(C(C)C)C(=O)N23)c1 (stereo not given)	-14	102	103	1
Cc1ccc(-c2nn3c(=O)c4ccccc4nc3c3ccccc23)cc1	-6	102	108	-14
CCc1ccc(OC(C)C(=O)Nc2cc(-c3ccc(C)cc3)no2)cc1 (stereo not given)	7	102	104	-46
CC(=O)OC[C@H]1OC=C[C@@H](OC(C)=O)[C@@H]1OC(C)=O	-8	103	104	-31
COc1ccccc1N1CCN(CCCCNC(=O)c2ccc3ccccc3c2)CC1	-1	102	99	-6
CCC(C)(C)C(=O)Nc1nnc(C(F)(F)F)s1	x	101	96	-3
CCc1nn(CC(=O)OC)c(=O)c2cc3sc(C)cc3n12	2	102	104	5
O=C(O)C1CCC(CNCc2ccncc2)CC1 (stereo not given)	-12	103	107	-11
Cc1cc(C)nc(N2CCC(NC(=O)Cc3cccs3)CC2)n1	-10	102	103	-3
NCC12CC3CC(C1)CC(C(=O)O)(C3)C2	-5	101	103	-3
Oc1ccccc1C1=NNC(O)(C(F)(F)F)C1 (stereo not given)	-25	102	100	-4
COC(CN(C)C(=O)c1c[nH]c2ccc(S(=O)(=O)Nc3ccccc3F)cc2c1=O)OC	-117	101	102	0
CCCNC(=O)C1=NS(=O)(=O)c2ccccc2N1	0	101	102	2
O=C(Cc1ccc(S(=O)(=O)N2CCOCC2)s1)Nc1ccccc1Br	-8	110	115	-11
Cc1cc2nc(N(C)C)c3ccccc3n2n1	-30	97	103	8
COC(=O)c1sc2nc(C)cc(C)c2c1N	i	98	94	-3
CCOC(=O)c1cc(=O)c2ccc(OCC(=O)Nc3ccc4c(c3)OCCO4)cc2o1	-11	103	104	-23
CCN1C(=O)C(CC(=O)Nc2ccc(C(=O)OC)cc2)N(CCN2CCOCC2)C1=S (stereo not given)	-6	101	104	-25
CC(C)(C)c1cc2nc(N)nc(N)n2n1	-4	100	100	-31
c1ccc2sc(SN3CCOCC3)nc2c1	84*	104	99	-3
CC(C)N1C(=O)C(O)(c2nnc(-c3ccccc3)o2)c2ccccc21 (stereo not given)	4	102	105	-16
CC(=O)N1CCN=C1SCc1ccccc1	-19	101	104	12
CN(C)S(=O)(=O)c1ccc2oc3nnc(SCC#N)n3c2c1	0	104	109	-8
CN(C)c1ccc(C2NCC(CCl)O2)cc1 (stereo not given)	-1	102	106	x
CCOC(=O)C1=NN(c2ccccc2)C(=O)C1	47	100	99	-194
Cc1ccc(S(=O)(=O)Nc2ccc(N=NN3CCCCC3)cc2)cc1	20	100	102	-57

Arranged by length of the SMILES (low to high): part of the list above
mol	MbtI inh	PV pol inh	PV pol inh intensity	Mtb MenB inh
CC(=O)N1CCN=C1SCc1ccccc1	-19	101	104	12
CN(C)c1ccc(C2NCC(CCl)O2)cc1 (stereo not given)	-1	102	106	x
CN(C)S(=O)(=O)c1ccc2oc3nnc(SCC#N)n3c2c1	0	104	109	-8
CC(C)N1C(=O)C(O)(c2nnc(-c3ccccc3)o2)c2ccccc21 (stereo not given)	4	102	105	-16
CCOC(=O)c1cc(=O)c2ccc(OCC(=O)Nc3ccc4c(c3)OCCO4)cc2o1	-11	103	104	-23

Later entries:
mol	MbtI inh	PV pol inh	PV pol inh intensity	Mtb MenB inh
Cc1cc(C)cc(-n2c(=O)c3oc4ccccc4c3n(Cc3ccc(F)cc3)c2=O)c1	50	102	101	-15
Cc1ccccc1OCC(=O)Nc1nn2c(C)nnc2s1	18	102	86	14
COc1cc2sc(=NC(=O)CCS(=O)(=O)c3ccccc3)n(C)c2cc1OC	3	98	103	-2
CN1CCN(CCNC(=O)c2cnn(-c3ccccc3)c2-n2cccc2)CC1	-4	102	101	1
Brc1ccc(OCc2cn3ccccc3n2)cc1	-17	100	106	x
Cc1c(C#N)c2ncnc(-c3ccccc3)c2n1Cc1ccccc1	-12	100	102	-36
COc1ccc(C(=O)NCCc2sc(-c3cccc(C)c3)nc2C)cc1	-36	99	96	-26
Cc1ccc2nc(-c3ccsc3)c(NCC(=O)NN)n2c1	54	101	105	-14
CCOC(=O)CCc1c(C)nn(-c2ccc(Cl)nn2)c1C	1	104	104	9
CCOC(=O)c1c(NC(=O)COC(=O)c2cn(CC)c3nc(C)ccc3c2=O)sc2c1CCCC2	x	103	96	-2
CS(=O)(=O)N1CCC(NC(=O)Cc2ccccc2)CC1	1	98	100	13
CCc1nnc(NC(=O)c2ncn[nH]2)s1	x	96	100	0
COc1ccc(OCC(=O)Nc2cccnc2)cc1	-6	103	103	x
CC(C)c1ccc(OCc2ccc(C(=O)NCc3ccco3)cc2)cc1	-108	102	99	-9
CCN(CC)S(=O)(=O)c1ccc(N2CCN(C(=O)c3ccccc3)CC2)nc1	58	107	108	-20
C1CCN=C(Nc2nc3c(s2)CCCC3)CC1	3	106	105	-6
O=C(/C=C1\Sc2ccccc2NC1=O)NC1CC1	1	102	109	-73
COc1ccc(C(=O)OCC(=O)Nc2ccc3[nH]c(=O)[nH]c3c2)cc1	-11	103	108	-28
O=C(NCCSC1CCCCC1)c1ccco1	x	102	100	-1
Cc1ccccc1NC(=O)CCCn1nc(C)c2c(C)n(-c3ccccc3)nc2c1=O	-21	105	103	-6
CCOC(=O)c1c(-c2ccccc2)nc(=O)[nH]c1-c1ccc(-c2ccc(F)cc2)o1	-1	102	103	-94
COc1ccc(N2CCN(C(=O)C(CCSC)N=C3NS(=O)(=O)c4ccccc43)CC2)cc1 (stereo not given)	-8	106	107	0
CC1=C(C(=O)Nc2ccccc2)C(C2CCCCC2)C(C#N)=C(N)O1 (stereo not given)	-4	102	106	x
CCC(C)(C)NC(=O)c1cc(Cl)ccc1OC	-14	100	101	-23
CCc1ccc(NC(=O)C(OC)c2ccccc2)cc1 (stereo not given)	-19	101	104	-24
Cc1ccccc1OCC(O)CNC(C)C1CC2CCC1C2 (stereo not given)	-14	108	120	-33
Nc1c(S(=O)(=O)c2ccccc2)c2nc3ccccc3nc2n1-c1cccc(S(N)(=O)=O)c1	4	106	103	-122
COCCN1C(=O)c2ccccc2C(C(=O)N2CCN(c3ccccc3OC)CC2)C1c1ccc(F)cc1 (stereo not given)	-1	99	106	5
S=c1[nH]nc(-c2ccccc2)n1N=Cc1cccs1	x	104	99	-83
COc1ccc(CCNC(=O)COc2ccc(-c3noc(C)n3)cc2)cc1OC	-14	104	107	-16
CCc1ccc(NC(=O)c2ccc3c(c2)OCO3)cc1	x	99	95	1
CCCc1nc2c(o1)OC(N)=C(C#N)C2c1cccc(O)c1 (stereo not given)	x	99	102	-298
O=C(/C=C/c1ccccc1)C1=C(O)C(=O)N(CCO)C1c1ccc2c(c1)OCO2 (stereo not given)	8	103	100	-202
CC(C)(C)C(=O)NNc1ncnc2sccc12	0	104	104	1
c1ccc(CCc2nc3ccccc3[nH]2)cc1	-244	101	103	x
COc1ccc(C2CCN(C(=O)N(C(C)C)C(C)C)CC2)cc1	-10	103	104	-5
NC(=O)c1cc(NC(=O)/C=C/c2cccc(F)c2)cc(C(N)=O)c1	38	99	102	5
CC1(C)CC(n2c(=O)c3c(n4cnnc24)-c2ccccc2CC32CCCCC2)CCO1 (stereo not given)	-3	103	101	-14
COc1ccc(CN(C(=O)NC2CCCC2)C2CCN(C(C)=O)CC2)cc1	-8	104	103	-16
COc1ccc(CN2C(=O)c3ccccc3C2C(=O)NC2CCCC2)c(OC)c1 (stereo not given)	-13	101	102	-12
CC1=NN(c2ccc(C)c(C)c2)C(=O)/C1=C\c1ccc(-c2ccc(S(N)(=O)=O)cc2)o1	x	100	104	-25
O=C(NC1CC1)C1CCN(C(=O)c2ccc(Cl)cc2)CC1	-8	104	102	-3
CN(C)C(=S)SCC(=O)Nc1ccc(C#N)cc1	3	103	105	-15
CCOC(=O)C1C(=O)OC2(CCCCC2)C1C#N (stereo not given)	-8	97	102	-13
CCCn1cc(S(=O)(=O)CC(=O)Nc2ccc(C)cc2)c2ccccc21	-11	98	100	-18
CSc1scc2c1C(=O)CC(C)(C)C2	-1	103	108	-13
CC(C)(C)NC(=O)CCCN1C(=O)/C(=C/c2ccccc2)SC1=S	-2	100	106	-6
COc1cc(C(=O)Nc2ccc3c(c2)CCN3C(C)=O)cc(OC)c1OC	-2	101	99	-18
O=C1NC2C=NN(c3ccccc3)C(=O)C2NC1=O (stereo not given)	-9	104	107	1
CCOC(=O)N1CCC(NC(=O)c2nn(C)c3c2CS(=O)(=O)c2ccccc2-3)CC1	-9	104	102	0

Continuation.
mol	MbtI inh	PV pol inh	PV pol inh intensity	Mtb MenB inh
CC(C)(C)NCc1ccccc1OCc1cccs1	x	98	97	0
CC(C)c1ccccc1NC(=O)c1cccs1	-3	106	102	-42
COc1ccc(/C=C/C(=O)NC(C)(C)C)cc1	x	105	102	-2
C=CCOc1cccc(C(=O)NCCC)c1	10	105	102	0
O=C(CSc1ccccn1)c1ccc(F)cc1	86*	99	99	-10
CC1=CC(C)(C)N(C(=O)c2ccccc2)c2ccccc21	1	102	104	-11
CN(C)Cc1nc2ccccc2c(=O)n1Cc1nc(-c2cc3ccccc3o2)cs1	8	103	110	-29
O=C(O)CCC(=O)Nc1ccc2ccccc2c1	x	102	110	-18
O=[n+]1cc(-c2cccc(C(F)(F)F)c2)n([O-])c2c1CCC2	-1	104	103	-22
CC(=O)N1CCN(S(=O)(=O)c2cccc(C(=O)Nc3ccnn3C(C)C3CC3)c2)CC1 (stereo not given)	9	101	105	-12
c1ccc(CCNC2=NCCCS2)cc1	-8	101	104	x
CN(CCc1ccccn1)C(=S)Nc1ccc(Cl)cc1Cl	x	109	105	-22
COC(=O)CCC(=O)Nc1ccc(Cl)cc1	-3	100	102	-29
c1csc(Cc2nc3c4ccccc4ncn3n2)c1	-12	102	100	-19
COC(=O)Cc1c(C)c2ccc(O)c(C)c2oc1=O	114	105	104	7
O=c1c2ccccc2n(Cc2ccccc2)c(=O)n1Cc1nc(-c2ccccc2)no1	-3	102	101	-32
Cc1ccc(NC(=O)CCN2C(=O)c3ccccc3Sc3ncccc32)c(C)c1	-3	102	103	-12
CCN(CC)c1cccc(OC(=O)c2cccnc2Cl)c1	-5	100	103	x
